# gsp antag – qHTS for Antagonists of gsp, the Etiologic Mutation Responsible for Fibrous Dysplasia/McCune-Albright Syndrome: qHTS. gsp-mutant cells, cAMP HTRF, 30 min; control for the full effect not named in the record. Potency, µM (series often up to 76.9 µM), for inactives: at the top dose activity change, negative = inhibition, most hits filed as inhibitors. actives 0.4% (n = 340,000); active = falling curve of any shape with a large fitted effect; inconclusive = falling curve, mostly with a smaller effect; inactive = flat or rising curve; cell line not stated here;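 further: intracellular cAMP measured with PDE inhibitor Ro 20-1724 present during compound exposure; potency means the concentration at half of the fitted maximal effect; on the % scale 0 is the no-effect control and ±100 the full control effect; nearly all actives have a fitted effect of over 65% in size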
#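 HTRF cAMP read-out (cAMP-d2 plus anti-cAMP antibody-K in lysis buffer, 30 min RT). Before lysis, cells are exposed to compounds with […] for 30 min at 37C in DPBS containing Ca/Mg, BSA and Tween 20.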
# CtBP-E1A blk – qHTS Assay for Inhibitors of the CtBP/E1A Interaction | CtBP / adenovirus E1A interaction (AlphaScreen) | AlphaScreen GST-E1A/His-CtBP binding, 1536-well; hits give low values; control for the full effect not named in the record | activity change, % (test concentration not listed) | actives 0.49% (n = 340,000) | AID 651724, 2012; in the data active means activity change below about -65%; inconclusive means about -30% to -65%; inactive means above about -30%; further: on the % scale 0 is the no-effect control and ±100 the full control effect; compound concentration not given in the record
#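 GST-E1A and His-tagged CtBP (125 nM each as 5X stock) were preincubated with pin-transferred compound for 2 h at 37 °C in the dark, then glutathione donor and nickel acceptor beads were added for 1 h before AlphaScreen reading.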
# Six1-Eya2 inh – qHTS Assay for Inhibitors of the Six1/Eya2 Interaction | AlphaScreen GST-Six1/His-Eya2 binding, biochemical; hits give low values; control for the full effect not named in the record | activity change, % (no concentration beside the values) | Homeobox protein SIX1 (Homo sapiens) + Protein phosphatase EYA2 (Homo sapiens), … | AID 651725, 2012 | actives 0.56% (n = 360,000); in the data active = activity change below about -65%; inconclusive = about -30% to -65%; inactive = above about -30%; further: on the % scale 0 is the no-effect control and ±100 the full control effect; compound concentration not given in the record
# Target sequence (O00167 whole entry, looked up): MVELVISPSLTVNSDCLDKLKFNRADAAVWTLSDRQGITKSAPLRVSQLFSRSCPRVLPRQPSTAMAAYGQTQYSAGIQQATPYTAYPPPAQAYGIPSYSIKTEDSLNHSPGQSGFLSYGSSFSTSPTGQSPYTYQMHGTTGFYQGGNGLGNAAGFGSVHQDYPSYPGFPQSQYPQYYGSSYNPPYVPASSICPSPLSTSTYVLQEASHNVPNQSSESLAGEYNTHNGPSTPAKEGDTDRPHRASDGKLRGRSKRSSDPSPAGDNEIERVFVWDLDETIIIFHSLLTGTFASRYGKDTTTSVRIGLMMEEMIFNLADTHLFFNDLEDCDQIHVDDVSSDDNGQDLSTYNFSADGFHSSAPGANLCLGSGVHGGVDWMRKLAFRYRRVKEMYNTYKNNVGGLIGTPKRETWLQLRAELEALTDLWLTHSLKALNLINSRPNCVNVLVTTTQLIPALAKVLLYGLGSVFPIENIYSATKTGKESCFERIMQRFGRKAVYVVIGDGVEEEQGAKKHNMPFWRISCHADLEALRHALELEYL
# Target sequence (Q15475 whole entry, looked up): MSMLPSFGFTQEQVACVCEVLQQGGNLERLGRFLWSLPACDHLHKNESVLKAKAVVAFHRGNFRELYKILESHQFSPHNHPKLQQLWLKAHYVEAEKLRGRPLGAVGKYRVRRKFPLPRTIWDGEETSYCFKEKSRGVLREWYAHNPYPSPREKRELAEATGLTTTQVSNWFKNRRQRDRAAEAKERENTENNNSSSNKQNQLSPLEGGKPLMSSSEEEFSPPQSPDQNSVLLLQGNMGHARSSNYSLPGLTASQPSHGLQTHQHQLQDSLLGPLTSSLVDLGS
#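 GST-Six1 + His-Eya2 (5X stock: 250/500 nM); Tris pH 8.0, 300 mM NaCl, 0.05% BSA, 0.02% Tween 20; GSH donor/Ni acceptor beads; 1 h 37 °C dark; AlphaScreen readout.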
# gsp ag – qHTS for Agonist of gsp, the Etiologic Mutation Responsible for Fibrous Dysplasia/McCune-Albright Syndrome: qHTS. gsp mutant cells, cAMP HTRF, 30 min; control for the full effect not named in the record. Potency, µM (top dose mostly 76.9 µM), inactives show at the highest dose activation (cAMP increase), actives largely listed as activators. actives 0.13% (n = 340,000); active = well fitted activation curve with a large enough effect; inconclusive = small, poorly fitted or top-dose-only effect, or another doubt; inactive = no such curve, though single readings can be large or run the other way; cell line not stated here;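 further: phosphodiesterase inhibitor Ro 20-1724 added with compounds to block cAMP breakdown; potency means the concentration at half of the fitted maximal effect; nearly all actives have a fitted effect of over 60% in size; about a fifth of the inactives were tested at one dose only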
#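 Cells in DMEM/10% FBS with G418 were pretreated with compounds in DMSO plus […] (300 uM stock) for 30 min at 37C. cAMP was measured by HTRF (cAMP-d2 plus anti-cAMP antibody-K) after 30 min at room temperature.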
# D2 agonist – Beta-Arrestin HTS for Positive Allosteric Modulators of the Human D2 Dopamine Receptor: Agonists. DiscoveRx PathHunter D2 beta-arrestin, luminescence, 90 min; 100% = 57 uM dopamine signal. actives 0.084% (n = 360,000). activation, % (concentration not given with the values); in the data active = activation above about 40%; inconclusive = about 15% to 40%; inactive = below about 15%; further: compound concentration not given in the record; the text of the record calls up to 30% inactive
#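 Agonist mode: compounds alone added to overnight-plated D2 PathHunter cells for 90 min at 37 C, with 57 uM final dopamine (EC100) defining full response. Beta-arrestin recruitment detected by chemiluminescent reagent, read after 1 h at ambient temperature.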
# D2 potentiator – Beta-Arrestin HTS for Positive Allosteric Modulators of the Human D2 Dopamine Receptor: Potentiators; potentiation, % (no concentration beside the values); actives 0.23% (n = 360,000); DiscoveRx D2 beta-arrestin cells, luminescence, 90 min; 100% = 57 uM dopamine signal; D(2) dopamine receptor (Homo sapiens), P14416; active = potentiation of 50% or more; inconclusive = 30% to 50%; inactive = 30% or less;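 further: compound concentration not given in the record; tested on top of an EC20 dose of dopamine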
#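 PathHunter beta-arrestin assay in DiscoveRx D2 cells. Compounds were added with an EC20 of dopamine (50 nM final) for 90 min at 37 deg C. Luminescence was read 1 h after detection reagent, with 57 uM dopamine as the EC100 control.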
# An asterisk follows results filed as active; ? = inconclusive; · = not tested or not shown; [ ] = dose if it differs, or a comment. Compounds as they come; 1.4% or so of the library scored in one or more.
# Assay codes: A = gsp antag; B = CtBP-E1A blk; C = Six1-Eya2 inh; D = gsp ag; E = D2 agonist; F = D2 potentiator
C/C(=N\NC(=O)c1ccc(N2CCCC2=O)cc1)c1ccc(O)cc1O
  A: -23%	B: 0	C: -27	D: 24%	E: -1.1	F: -13
CC(CN1CCN(CC(C)C(=O)c2ccccc2)CC1)C(=O)c1ccccc1 (centres undefined)
  A: 11%	B: 0	C: -3	D: 2%[15.4 µM]	E: -0.2	F: -38
Cc1ccccc1C(=O)NC(CC(C)C)C(=O)N1CCN(c2ccccc2)CC1 (centres undefined)
  A: 8%	B: 2	C: -6	D: 24%	E: 0.2	F: -9
Cc1ccc(C(C(=O)NC2CCCC2)N(C(=O)c2csnn2)C2CC2)cc1 (centres undefined)
  A: 4%	B: -10	C: -12	D: 26%	E: 0.2	F: 4
Cc1ccccc1OC(C)c1nc(-c2ccccc2)no1 (centres undefined)
  A: -5%	B: 60	C: 63	D: -41%[inhibitor]	E: -1.7	F: -1
Cc1cccc(Nc2nc(N)c([N+](=O)[O-])c(NCc3ccco3)n2)c1
  A: 11%	B: -20	C: -16	D: 2%[15.4 µM]	E: -5.3	F: -1
Cc1ccc(CNC(=O)C(Cc2ccccc2)NS(=O)(=O)c2ccc3c(c2)CCC(=O)N3)cc1 (centres undefined)
  A: 2%	B: 4	C: 0	D: 1%	E: -0.9	F: 5
COc1ccc(CNc2ncc(-c3ccccc3)n2C)cc1
  A: 2%	B: ·	C: 7	D: 0%	E: -6.0	F: -68
O=C(CNC(=O)C12CC3CC(CC(C3)C1)C2)N/N=C\c1ccco1
  A: 7%	B: 8	C: 2	D: -19%	E: -0.4	F: 80*
COc1cccc(C(=O)Nc2c3c(nn2-c2ccc([N+](=O)[O-])cc2)CS(=O)(=O)C3)c1
  A: -12%	B: 4	C: 2	D: ?	E: 1.5	F: -9
Cc1csc(NC(=O)CCn2c(=O)oc3ccccc32)n1
  A: 6%	B: -2	C: 5	D: 5%	E: -3.1	F: 8
CSc1cccc(NC(=O)CCNC(=O)c2ccco2)c1
  A: -8%	B: -9	C: 9	D: -13%[15.4 µM]	E: -4.5	F: -9
CCC1(c2ccccc2)NC(=O)N(CC(=O)N(C)Cc2ccccc2)C1=O (centres undefined)
  A: 0%	B: 3	C: 9	D: 6%[15.4 µM]	E: -0.7	F: -5
COc1ccccc1C(=O)Nc1ccnn1C1CCN(Cc2cnn(C)c2)CC1
  A: 6%	B: -4	C: 11	D: ?	E: -2.1	F: -13
OC1=C(O)c2nc3cc(F)ccc3nc21
  A: -17%	B: -14	C: -4	D: -6%	E: -13	F: -6

# (list continues)
# Assay codes: A = gsp antag; B = CtBP-E1A blk; C = Six1-Eya2 inh; D = gsp ag; E = D2 agonist; F = D2 potentiator
Cn1nc(C(=O)NCc2ccco2)c2ccccc2c1=O
  A: 8%	B: -4	C: -24	D: 0%[15.4 µM]	E: -3.8	F: -8
Cc1cccc(OCC(=O)N2CCOCC2)c1
  A: 19%	B: 0	C: -3	D: -23%	E: 2.3	F: -9
COc1ccc(S(=O)(=O)NCCCn2ccnc2)cc1C(C)(C)C
  A: 2%	B: -11	C: 1	D: -51%[inhibitor]	E: 7.3	F: -15
O=C(NNC(=O)c1ccc2ccccc2c1O)c1ccccc1Cl
  A: -1%	B: -13	C: -10	D: 8%	E: -3.5	F: -31
COc1ccc(N2CCN(c3nc4ccccn4c(=O)c3C=O)CC2)cc1
  A: 2%	B: 2	C: 0	D: 1%	E: -1.6	F: -3
O=C(NC1=NCCS1)c1ccccc1Br
  A: -8%	B: 5	C: -2	D: 0%[15.4 µM]	E: -1.8	F: -10
CN(C(=O)COC(=O)C1CCN(S(=O)(=O)c2ccc3c(c2)OCCO3)CC1)C1CCS(=O)(=O)C1 (centres undefined)
  A: -2%	B: 4	C: 3	D: -89%[inhibitor]	E: -2.7	F: -7
Cc1ccc(CNC(=O)CN(C)S(=O)(=O)c2ccc3c(c2)n(C)c(=O)c(=O)n3C)cc1
  A: -3%	B: -10	C: -1	D: 18%	E: -2.7	F: -5
COc1ccc(OC2C(=O)N(Cc3ccc(F)cc3)C2c2ccc(OC)c(OC)c2)cc1 (centres undefined)
  A: -10%	B: -1	C: -4	D: -28%	E: -3.0	F: 4
C=CCOc1ccc(/C=C/C(=O)OCC(=O)N2CCC(c3ccccc3)=N2)cc1
  A: -2%	B: -21	C: 6	D: ?	E: -3.2	F: -2
CCOC(=O)c1cnn(-c2ccc(NS(=O)(=O)c3ccc(Cl)cc3)cc2)c1C(F)(F)F
  A: -19%	B: -1	C: -2	D: 7%[15.4 µM]	E: 0.9	F: -8
Cc1ccccc1NC(=O)Cn1c([N+](=O)[O-])cnc1C
  A: 1%	B: 13	C: 11	D: 20%	E: -3.1	F: -14
CCN(Cc1ccccc1)C(=O)c1cc2c(=O)oc3ccc(C)cc3c2s1
  A: -27%	B: 8	C: 14	D: -26%	E: 3.0	F: -5
N#CCc1ccc(C(=O)c2ccccc2)s1
  A: 5%	B: -1	C: -5	D: 8%	E: 3.9	F: -2
O=C(Nc1ccccc1)c1ccc(C(=O)Nc2ccccc2)nc1
  A: 0%	B: -26	C: 6	D: 0%[15.4 µM]	E: -2.5	F: 1

# Further entries:
# Assay codes: A = gsp antag; B = CtBP-E1A blk; C = Six1-Eya2 inh; D = gsp ag; E = D2 agonist; F = D2 potentiator
CCn1c(=O)c2c(nc(SCc3ccccn3)n2C)n(C)c1=O
  A: 5%	B: 3	C: -2	D: -19%	E: -4.6	F: -7
COc1ccc(C)cc1S(=O)(=O)NCC(c1ccc2c(c1)OCO2)N1CCOCC1 (centres undefined)
  A: -7%	B: 1	C: 31	D: -1%[15.4 µM]	E: -8.3	F: -11
Nc1nnc(/C=C/c2ccccc2Cl)s1
  A: 3%	B: -8	C: -3	D: 9%[15.4 µM]	E: -3.4	F: 0
CCC(=O)Nc1c(-c2ccc(C)cc2)nc2ccc(C)cn12
  A: 4%	B: -17	C: 13	D: -13%[15.4 µM]	E: 2.7	F: -9
O=C(CN1CCCCCC1)Nc1ccc(Br)cc1Br
  A: -13%	B: 16	C: 12	D: -5%	E: -2.5	F: -26
CC(=O)N1N=C(c2ccc(Br)cc2)CC1c1cccc([N+](=O)[O-])c1 (centres undefined)
  A: ·	B: -10	C: -10	D: -36%[inhibitor]	E: -0.9	F: -23
O=C(CCNC(=O)N1CC(=O)Nc2ccccc21)Nc1ccc(F)c(Cl)c1
  A: 8%	B: ·	C: -14	D: 8%	E: 2.1	F: -21
COC(=O)C(Cc1ccccc1)NC(=O)CCc1c[nH]c2ccccc12 (centres undefined)
  A: 1%	B: 2	C: -8	D: 8%	E: -2.6	F: -2
Cc1sc2c(c1C)CN(C(C)(C)C)CN2C(=O)c1ccccc1
  A: 3%	B: -2	C: -6	D: -27%	E: -3.7	F: -19
CCn1c(CNS(=O)(=O)c2ccc(Br)cc2)nnc1SC
  A: -13%	B: -21	C: 4	D: -16%	E: -1.1	F: -14
Cc1cc(C(=O)CN2C(=O)C(=O)N(CC(C)C)C2=O)c(C)n1-c1ccccc1F
  A: ·	B: 0	C: -2	D: 5%[15.4 µM]	E: -2.0	F: 1
Nc1c(C=C2C=CC(=O)C=C2)c(=O)nc2sc(CC(=O)N3CCCC3)nn12
  A: 3%	B: -29	C: -14	D: -13%	E: -7.4	F: -2
OCCCCNCc1cc(Br)ccc1OCc1ccccc1F
  A: 18%	B: -16	C: -9	D: -2%[15.4 µM]	E: -1.4	F: -13
COc1ccc(NC(=O)CNS(=O)(=O)c2cccc3nonc23)c(OC)c1
  A: -5%	B: 4	C: -4	D: 5%	E: 0.2	F: -16
O=C(O)c1ccccc1C(=O)OCCCc1ccncc1
  A: 7%	B: 5	C: 1	D: -18%	E: -2.7	F: -12

# Grouped by structure, the compounds so far containing an aryl thioether with sulfur outside any ring
# Assay codes: A = gsp antag; B = CtBP-E1A blk; C = Six1-Eya2 inh; D = gsp ag; E = D2 agonist; F = D2 potentiator
CSc1cccc(NC(=O)CCNC(=O)c2ccco2)c1
  A: -8%	B: -9	C: 9	D: -13%[15.4 µM]	E: -4.5	F: -9
CCn1c(=O)c2c(nc(SCc3ccccn3)n2C)n(C)c1=O
  A: 5%	B: 3	C: -2	D: -19%	E: -4.6	F: -7
CCn1c(CNS(=O)(=O)c2ccc(Br)cc2)nnc1SC
  A: -13%	B: -21	C: 4	D: -16%	E: -1.1	F: -14

# More compounds.
# Assay codes: A = gsp antag; B = CtBP-E1A blk; C = Six1-Eya2 inh; D = gsp ag; E = D2 agonist; F = D2 potentiator
CC(/C=N/n1c(-c2ccc(Cl)cc2)n[nH]c1=S)=C\c1ccco1
  A: -25%	B: -14	C: -22	D: 25%	E: 3.4	F: 5
CCOc1ccc(N(CC(=O)Nc2ccc(C)cc2C)S(C)(=O)=O)cc1
  A: 2%	B: -11	C: 11	D: 11%	E: 0.0	F: -10
Cc1cc(CNC(=O)COC(=O)C2CC3CCCC(C2)C3=O)cc(C)c1O (centres undefined)
  A: 10%	B: 5	C: 4	D: ?	E: 1.8	F: -1
CCN(CC)S(=O)(=O)c1ccc(NC(=S)NC(=O)C(C)C)cc1
  A: 3%	B: -2	C: 0	D: 13%	E: -3.6	F: -23
COc1ccc(NC(=S)NCc2ccccc2)c(OC)c1
  A: 0%	B: -11	C: -2	D: -3%	E: 1.0	F: -12
CSc1ccccc1NC(=O)C(C)N1C(=O)c2ccccc2S1(=O)=O (centres undefined)
  A: 1%	B: 11	C: -1	D: -7%[15.4 µM]	E: -1.5	F: -6
CCCCN(C(=O)c1cc(OC)c(OC)c(OC)c1)C1=CC2CCC(C1)N2C (centres undefined)
  A: 3%	B: 1	C: 8	D: 0%	E: -2.6	F: -4
CCn1nc(NC(=O)COC)c2cc3cc(C)ccc3nc21
  A: 2%	B: ·	C: 12	D: 29%	E: -0.4	F: -8
OC(COc1c(F)cc(Br)cc1F)CN1CCOCC1 (centres undefined)
  A: 14%	B: ·	C: 3	D: 7%	E: -4.2	F: -4
O=C(c1cccc(Cl)c1)N1CCC2CC1c1cc(-c3ccccc3)ccc12 (centres undefined)
  A: -17%	B: 0	C: -4	D: ·	E: -1.5	F: -3
COc1ccc(NC(=O)CN2CCCC2)cc1
  A: 6%	B: 0	C: 8	D: 1%[15.4 µM]	E: 1.2	F: -10
Cc1c(NC(=S)Nc2cccc(Cl)c2)c(=O)n(-c2ccccc2)n1C
  A: 5%	B: 5	C: 6	D: 25%[15.4 µM]	E: -2.1	F: -8
Cc1cccc(NC(=S)NC2CCCC2)c1
  A: -7%	B: 1	C: -2	D: 30%	E: -3.0	F: -7
